# ClpP mod = qHTS Assay for Activators of ClpP | ATP-dependent Clp protease proteolytic subunit (Bacillus subtilis (strain 168)), P80244 | purified B. subtilis ClpP, FRET peptide cleavage, 20 min | Potency, µM (top dose mostly 57.5 µM), for inactives: at the top dose activity change, negative = active | hit rate 1.9% among 340,000; active = well fitted falling curve with a large enough effect; inconclusive = small, poorly fitted or top-dose-only effect; inactive = no such curve, though single readings can be large or run the other way; note: potency is the fitted concentration of half-maximal effect; the source files actives as falling curves though it sought activators and does not explain the sign; nearly all actives have a fitted effect of over 65% in size; many hits overshoot -100%
# Target sequence (P80244 whole entry, looked up): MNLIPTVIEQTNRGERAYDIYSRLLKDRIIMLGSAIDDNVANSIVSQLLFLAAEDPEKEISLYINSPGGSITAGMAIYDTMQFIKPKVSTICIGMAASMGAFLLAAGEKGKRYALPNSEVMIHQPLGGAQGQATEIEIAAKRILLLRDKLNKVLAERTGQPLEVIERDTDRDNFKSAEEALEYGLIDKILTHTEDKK
#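 ClpP 10 microg/mL final, pH 8 Tris/KCl buffer with BSA, glycerol, Tween-20; compound pinned in; FRET-FV substrate; RT 20 min; Ex320/Em430; ΔFRET vs ADEP 5.8 microM, DMSO, no enzyme.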
# D2 potentiator = potentiates the human D2 dopamine receptor allosterically | P14416 | DiscoveRx D2 beta-arrestin cells, luminescence, 90 min; 100% = 57 uM dopamine signal | potentiation, % (concentration not given with the values) | hit rate 0.23% among 360,000 | AID 624464; active = potentiation of 50% or more; inconclusive = 30% to 50%; inactive = 30% or less;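 note: compound concentration not given in the record; tested on top of an EC20 dose of dopamine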
# Target sequence (P14416 whole entry, looked up): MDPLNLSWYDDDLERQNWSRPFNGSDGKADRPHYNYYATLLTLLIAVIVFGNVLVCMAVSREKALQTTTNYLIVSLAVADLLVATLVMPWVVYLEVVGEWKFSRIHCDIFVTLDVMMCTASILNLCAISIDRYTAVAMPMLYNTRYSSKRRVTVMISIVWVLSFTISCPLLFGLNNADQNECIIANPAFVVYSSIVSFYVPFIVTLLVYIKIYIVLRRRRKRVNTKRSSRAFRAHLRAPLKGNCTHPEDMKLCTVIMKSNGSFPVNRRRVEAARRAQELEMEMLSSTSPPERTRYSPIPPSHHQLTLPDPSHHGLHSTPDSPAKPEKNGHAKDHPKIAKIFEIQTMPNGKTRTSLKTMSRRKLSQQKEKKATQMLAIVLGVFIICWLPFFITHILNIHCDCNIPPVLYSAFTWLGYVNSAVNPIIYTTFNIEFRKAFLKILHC
#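 D2 cells co-treated with compound plus 50 nM dopamine (EC20) for 90 min at 37 deg C to detect potentiation. Beta-arrestin recruitment was read as enzyme-fragment luminescence after 1 h at ambient temperature. Full response was set by 57 uM dopamine.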
# The depositor's hits bear a star; ? = inconclusive. This is a subset. The share of hits here may be higher or lower than overall.
SMILES,ClpP mod,D2 potentiator
Cc1ccc(Cc2c(-c3cccc(Cl)c3)nc3cc(C)c(Br)c(C)n23)cc1,-18%,-6
CCCNC(=O)C1(C)CCCN(C(=O)c2cccnc2Oc2ccccc2)C1 (centres undefined),3.3%,1
CC(=O)Nc1cccc(-c2ccnc3c2CC(C)(C(=O)Nc2ccc(F)c(Cl)c2)O3)c1 (centres undefined),-16%,-1
O=C(NC(c1ccc(Cl)cc1)c1cnccn1)C1CCN(CCOc2ccc(F)cc2)CC1 (centres undefined),2.0%,-25
CCCNC(=O)C1(C)CCN(C(=O)Cc2ccc3ccccc3c2)C1 (centres undefined),0.5%,-2
CCC(c1nc2ccccc2[nH]1)N(CCCn1ccnc1)C(=O)c1ccc(C(F)(F)F)cc1 (centres undefined),0.3%,-3
O=C(/C=C/[C@H]1O[C@@H](n2cnc3c(NC(=O)c4ccccc4)ncnc32)[C@H](O)[C@@H]1O)NCCc1ccc(F)cc1,1.4%,-3
COc1ccc(-c2nc3ccc(C)cn3c2Cc2ccsc2)cc1OC,4.8%,-11
CC(=O)N(C)[C@H]1C[C@@H](c2ccccc2)N(C(C)=O)C[C@H]1CO,-2.1%,-6
Clc1cccc(-c2nc3c4ccccc4ccn3c2Cc2ccccc2)c1,4.7%,-5

# Brought forward from above: six entries, followed by the next part.
SMILES,ClpP mod,D2 potentiator
CCCNC(=O)C1(C)CCN(C(=O)Cc2ccc3ccccc3c2)C1 (centres undefined),0.5%,-2
CCC(c1nc2ccccc2[nH]1)N(CCCn1ccnc1)C(=O)c1ccc(C(F)(F)F)cc1 (centres undefined),0.3%,-3
O=C(/C=C/[C@H]1O[C@@H](n2cnc3c(NC(=O)c4ccccc4)ncnc32)[C@H](O)[C@@H]1O)NCCc1ccc(F)cc1,1.4%,-3
COc1ccc(-c2nc3ccc(C)cn3c2Cc2ccsc2)cc1OC,4.8%,-11
CC(=O)N(C)[C@H]1C[C@@H](c2ccccc2)N(C(C)=O)C[C@H]1CO,-2.1%,-6
Clc1cccc(-c2nc3c4ccccc4ccn3c2Cc2ccccc2)c1,4.7%,-5
OCC[C@@H]1C[C@H](O)[C@@H](O)[C@@]2(OCCCc3cc(C(F)(F)F)ccc32)O1,0.1%,-7
CC(=O)Nc1ccc(NC(=O)C2Cc3c(-c4cccc(NC(C)=O)c4)ccnc3O2)cc1 (centres undefined),-6.1%,-1
CN1C=CC(=C[N+](=O)[O-])N(C)C1=O,2.9%,-1
Cc1nc2c(OCc3ccc(Cl)cc3Cl)cccn2c1N(C)Cc1cccs1,?,-17
CC(C)(C)C(=O)N1CCC2CC1c1cc(-c3ccc4c(c3)OCO4)ccc12 (centres undefined),-25%,-5
COCCNC(=O)c1cc2c(c(-c3cccc(C#CC(C)(C)O)c3)n1)[C@@H](CCO)N(S(=O)C(C)(C)C)C2 (some centres undefined),-4.9%,1
CCOC(=O)C1(C)CCCN(C(=O)c2cccnc2)C1 (centres undefined),0.1%,-9
OC(c1ccc2c(c1)OCO2)c1ncc(-c2cccc(C(F)(F)F)c2)[nH]1 (centres undefined),-5.6%,0
Cc1ccccc1-c1cc2c(c3c1ccn3C)C1CCC2O1 (centres undefined),4.7%,-2
CCCS(=O)(=O)NC(=O)C1(C)CCN(C(=O)/C=C/c2ccccc2)C1 (centres undefined),1.6%,2
CC1(C(=O)Nc2cnc3ccccc3c2)CCN1CCOc1ccccc1 (centres undefined),-1.9%,1
CC(=O)Nc1cnc(-c2ccccc2C(C)=O)cn1,-26%,-4
COC(=O)CCCCC1=CCC2C(=O)C=C(O)C2C1 (centres undefined),1.1%,-1
CC1(C(=O)NS(=O)(=O)c2cccc(OC(F)F)c2)CCN1C(=O)CC1CCCC1 (centres undefined),0.1%,-3
COc1cccc(C(C)(O)c2nc(-c3ccccc3C)cs2)c1 (centres undefined),0.4%,-9
Cc1cccc(C)c1NC(=O)CN1CCC(Cc2ccccc2)CC1,0.6%,-8
Nc1ncnc2c1ncn2[C@@H]1O[C@H](C(=O)Nc2cc(C(F)(F)F)cc(C(F)(F)F)c2)[C@@H](O)[C@H]1O,0.5%,2
CN(Cc1ccccc1)C(=O)Nc1c(Cl)cccc1Cl,-7.4%,-6
C=CCNc1nc(NCCOc2ccccc2Cl)c2sc(-c3ccccc3)cc2n1,28µM*,-19
CS(=O)(=O)Nc1cccc(NC(=O)c2cccc3c(-c4cccc(C(N)=O)c4)coc23)c1,-8.3%,25
CCOc1ccc2[nH]c(=S)sc2c1,0.4%,-18
CCC12CC1(C(=O)OC)C(=O)N1CCc3c([nH]c4ccccc34)C12 (centres undefined),-3.2%,-13
CN1CCN(c2ncnc3c2ncn3[C@H]2CN(Cc3cccs3)C[C@@H](CO)O2)CC1,-1.0%,-10
CC(C)(C)c1ccc(CC(=O)N2CCC2(C)C(=O)NS(=O)(=O)c2ccccc2Cl)cc1 (centres undefined),1.2%,6
CCc1nc2c(OCCC3CCCCC3)cccn2c1N(C)C(=O)COc1ccccc1,-1.9%,-13
COCCCN1C(=O)C(CC(=O)NCCN2CCOCC2)CC(C(=O)N(C(C)C)C(C)C)=C1C (centres undefined),2.7%,1
COC(=O)c1ccc(CN2C(=O)C(C)ON=C2c2ncccc2C)o1 (centres undefined),1.9%,-3
CCCC(=O)N1CCCC1(C)C(=O)NCc1ccc(F)cc1Cl (centres undefined),0.8%,-1
COc1ccc(-c2cc(NC=O)c3ncc(-c4cccc(C(=O)N(C)C)c4)n3c2)cn1,?,-8
Cc1cc(C(O)c2ncc(-c3ccc(Cl)cc3)[nH]2)ccc1F (centres undefined),-0.1%,-7
CC(C)CNC(=O)C1(C)CCCCCN1C(=O)c1cc(C#N)cs1 (centres undefined),-1.1%,-17
CC1(C(=O)NCc2cccs2)Cc2c(-c3cccc(C(F)(F)F)c3)ccnc2O1 (centres undefined),-2.2%,-3
O=C(NC(c1ccc(-c2ccccc2)cc1)c1cnccn1)C1CCN(CCOc2ccc(F)cc2)CC1 (centres undefined),0.5%,-8
COCCNC(=O)C1(C)CCCN(C(=O)c2ccc3c(c2)OCO3)C1 (centres undefined),0.6%,2
O=C(c1[nH]c(C(F)(F)F)nc1-c1ccccc1)N1CCOCC1,-1.0%,-1
CCOC1=C2[C@@H](CN(S(=O)(=O)c3ccc(C)cc3)[C@H]2c2cccc3ccccc23)[C@H]2C(=O)NC(=O)[C@H]2C1,-2.7%,-5
Cc1ccc(-c2csc(C(O)c3ccccc3)n2)cc1C (centres undefined),0.4%,6
CC1(C)ON=C(c2cccc(F)c2)NC1=O,2.3%,-2
COc1ccc(-c2cc(NC(C)=O)c3ncc(-c4ccc(OC)c(OC)c4)n3c2)cc1OC,-20%,-8
CNc1nc(NCC2CCCCC2)c2sccc2n1,-11%,-10
CCC(=O)N1CCC1(C)C(=O)NCc1ccc(SC)cc1 (centres undefined),1.0%,-6
CCNC(=O)C1(C)CCN(C(=O)c2ccccc2F)C1 (centres undefined),-1.0%,-4
CC1(C(=O)Nc2ccc3nc[nH]c3c2)CCN1C(=O)CCc1ccccc1 (centres undefined),1.5%,-7
C(=C\c1ccccc1)/CN1CCN(C(c2cccs2)c2nnnn2Cc2ccccc2)CC1 (centres undefined),-1.0%,-10
O=C(NCC1CC1)NC(=O)c1ccccc1F,0.8%,-3
CC(C)C(N)c1csc(NC(=O)Nc2ccc(OC(F)(F)F)cc2)n1 (centres undefined),-1.5%,8
CCc1nc2c(OCc3ccccc3C)cccn2c1N(C)C(=O)C(C)C,?,-6
Cc1c(C(=O)NCc2ccc(C(C)C)cc2)sc(=O)n1Cc1cccc(F)c1,0.8%,6
CC(=O)NN=C(C)c1ccc(NC(=O)C2CC2)cc1,1.0%,-5
CCCNC(=O)C1(C)CCN1C(=O)Cc1ccc(C(C)(C)C)cc1 (centres undefined),0.5%,-9

# Other results follow:
SMILES,ClpP mod,D2 potentiator
COc1ccccc1Cc1c(-c2ccc(OC)c(OC)c2)nc2c(C)cc(Br)cn12,-7.7%,5
CCc1nc2c(OCc3ccc(F)c(F)c3)cccn2c1N(C)C(=O)CC(C)C,-1.4%,-3
O=C(Nc1ccccc1)c1cc(C2CCCCN2C(=O)CCc2ccccc2)on1 (centres undefined),0.5%,0
CC1(C(=O)NS(=O)(=O)c2cccc(F)c2)CCN1C(=O)Cc1cccs1 (centres undefined),-3.5%,-6
CC1(C(=O)NS(=O)(=O)c2ccc(Br)cc2)CCN1C(=O)CCC1CCCC1 (centres undefined),-3.5%,-5
O=C(NCc1cccnc1)c1ccc2nc([C@@H]3O[C@H](CO)[C@H](O)[C@H](O)[C@H]3O)[nH]c2c1,-4.1%,-7
O=C(Nc1nnc([C@H]2C[C@H](O)[C@@H](CO)O2)s1)NC1CCCCC1,-2.4%,-8
NC(c1ccccc1)c1csc(NC(=O)Nc2cccc(C(F)(F)F)c2)n1 (centres undefined),-2.5%,-7
Cc1nc(Cn2c3ccc(NC(=S)NC4CCCCC4)cc3c(=O)n2C)cs1,4.1%,-9
CC(=O)C1=CCC(c2ccccc2)N(S(C)(=O)=O)C1 (centres undefined),0.4%,-6
CCc1nc2ccc(C(=O)NCCOc3ccc(OC)cc3)cn2c1N(CCC(C)C)CCN(C)C,-14%,-13
COCCNc1nc(NCc2ccc(C)cc2C)c2sccc2n1,-6.5%,-11
O=c1[nH]c(=S)[nH]c2c1C(c1ccc(Cl)cc1)OC(CCc1ccccc1)C2 (centres undefined),1.5%,-7
COc1ccccc1CNC(=O)C1(C)CCN1C(=O)C1(c2ccccc2)CC1 (centres undefined),-1.2%,-6
CCOC(=O)C1(C)CCN1C(=O)c1cc(C)n(C(C)(C)C)n1 (centres undefined),-3.4%,-3
CC(C)NC(=O)C1(C)CCCN1C(=O)c1ccc2c(c1)C(C)(C)CCC2(C)C (centres undefined),-1.5%,-12
COc1ccc(S(=O)(=O)NC(=O)C2(C)CCN2C(=O)c2ccc(C(F)(F)F)nc2C)cc1 (centres undefined),-0.8%,-6
CC(C)COC(=O)N1CCCCC1c1cc(C(=O)NC(C)C)no1 (centres undefined),-3.9%,-4
Cc1cc(O)ccc1-c1cc(C(=O)NCc2ccc(F)cc2)[nH]n1,-0.4%,-14
NC(=O)c1cccc(Nc2nc(C(N)Cc3ccc(C(F)(F)F)cc3)cs2)n1 (centres undefined),-2.2%,-15
O=C(Nc1ccccc1Cl)c1cc(C2CCCCN2C(=O)OCCF)on1 (centres undefined),-3.2%,-10
OC(c1ccccc1)(c1nc(-c2cccc3cccnc23)cs1)C(F)(F)F (centres undefined),?,-7
CC(=O)Nc1cc(-c2ccc(CO)cc2)cn2c(-c3cccc(C(F)(F)F)c3)cnc12,4.4%,-6
COc1ccc(Cl)cc1-c1cc(C(=O)Nc2ccc(Br)cc2)[nH]n1,-9.1%,-16
O=C(NCc1cccc(Cl)c1)c1ccc(-c2cccnc2)c2ccoc12,4.5%,-21
COc1cc(-c2coc3c(C(=O)NC4CCCCC4)cccc23)ccc1O,-1.0%,-13
O=C(Nc1nc(OCC(F)(F)F)cnc1/C=C\c1ccccc1)c1ccccc1,4.4%,-19
O=C(Nc1ccc2c(c1)OCCO2)C(c1ccnc2ccccc12)N1CCN(c2ccc(C(F)(F)F)cn2)CC1 (centres undefined),-14%,2
CC(C)C[C@H]1CNC(=S)N1C[C@H]1CCCN1C[C@H](Cc1ccc(O)cc1)N1C[C@H](Cc2ccc(O)cc2)N(CC2CCCCCC2)C1=S,-1.1%,-4
CC(C)c1ccc(CC(=O)N2CCC2(C)C(=O)Nc2cnc3ccccc3c2)cc1 (centres undefined),-4.6%,-11
COc1ccc(NC(=O)c2cccc3c(-c4ccc(OC)cc4C)coc23)cc1,?,5
Cc1cc(Br)cn2c(Cc3ccccc3)c(-c3ccc(F)cc3)nc12,-2.2%,0
CC(=O)Nc1cccc(-c2cc(NC(C)=O)c3ncc(-c4cccc(C(C)=O)c4)n3c2)c1,-5.3%,-8
CC1(C(=O)NS(=O)(=O)c2ccccc2)CCN1C(=O)C1(c2ccc(Cl)cc2)CCC1 (centres undefined),-1.4%,-6
CC(=O)c1ccc(OCc2c(-c3ccccc3)nnn2CC(=O)NS(=O)(=O)c2ccc(C)cc2)cc1,0.4%,0
Cc1ccc(F)c(S(=O)(=O)NC(=O)C2(C)CCN2C(=O)Cc2cc(F)ccc2F)c1 (centres undefined),1.0%,2
O=C(NCC1CCOCC1)C1Cc2c(-c3ccccc3Oc3ccccc3)ccnc2O1 (centres undefined),-6.5%,-12
COCCNC(=O)C1CCCN(C(=O)c2cc(-c3ccccc3)cs2)CC1 (centres undefined),1.4%,-8
COCCNC(=O)C1(C)CCCN(C(=O)c2ccccc2OC)C1 (centres undefined),0.4%,2

# One compound at a time, from the list above. Order of screens: ClpP mod | D2 potentiator
# CC1(C(=O)NS(=O)(=O)c2ccccc2)CCN1C(=O)C1(c2ccc(Cl)cc2)CCC1 (centres undefined) reads -1.4% | -6
# COCCNC(=O)C1CCCN(C(=O)c2cc(-c3ccccc3)cs2)CC1 (centres undefined) reads 1.4% | -8
# Cc1ccc(F)c(S(=O)(=O)NC(=O)C2(C)CCN2C(=O)Cc2cc(F)ccc2F)c1 (centres undefined) reads 1.0% | 2

# High-throughput results deposited in PubChem BioAssay by National Center for Advancing Translational Sciences (NCATS).
